Screening results as filed in PubChem.
NPR1 antag = Natriuretic polypeptide receptor (hNpr1) antagonism - Primary qHTS; Atrial natriuretic peptide receptor 1 (Homo sapiens), P16066; HEK293 hNpr1 GloSensor cGMP, ANP-stimulated luminescence; AID 1347048, 2019; hit rate 1.6% among 76,000; Potency, µM (top dose mostly 46.3 µM), for inactives: at the top dose activity change, negative = inhibition, usual class: inhibitors; active = well fitted inhibition curve with a large enough effect; inconclusive = small, poorly fitted or top-dose-only effect; inactive = no such curve, though single readings can be large or run the other way;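 note: nearly all actives have a fitted effect of over 60% in size; nearly all hits also lower the signal before the agonist is added; a reference antagonist and vehicle were the controls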
Target sequence (P16066 whole entry, looked up): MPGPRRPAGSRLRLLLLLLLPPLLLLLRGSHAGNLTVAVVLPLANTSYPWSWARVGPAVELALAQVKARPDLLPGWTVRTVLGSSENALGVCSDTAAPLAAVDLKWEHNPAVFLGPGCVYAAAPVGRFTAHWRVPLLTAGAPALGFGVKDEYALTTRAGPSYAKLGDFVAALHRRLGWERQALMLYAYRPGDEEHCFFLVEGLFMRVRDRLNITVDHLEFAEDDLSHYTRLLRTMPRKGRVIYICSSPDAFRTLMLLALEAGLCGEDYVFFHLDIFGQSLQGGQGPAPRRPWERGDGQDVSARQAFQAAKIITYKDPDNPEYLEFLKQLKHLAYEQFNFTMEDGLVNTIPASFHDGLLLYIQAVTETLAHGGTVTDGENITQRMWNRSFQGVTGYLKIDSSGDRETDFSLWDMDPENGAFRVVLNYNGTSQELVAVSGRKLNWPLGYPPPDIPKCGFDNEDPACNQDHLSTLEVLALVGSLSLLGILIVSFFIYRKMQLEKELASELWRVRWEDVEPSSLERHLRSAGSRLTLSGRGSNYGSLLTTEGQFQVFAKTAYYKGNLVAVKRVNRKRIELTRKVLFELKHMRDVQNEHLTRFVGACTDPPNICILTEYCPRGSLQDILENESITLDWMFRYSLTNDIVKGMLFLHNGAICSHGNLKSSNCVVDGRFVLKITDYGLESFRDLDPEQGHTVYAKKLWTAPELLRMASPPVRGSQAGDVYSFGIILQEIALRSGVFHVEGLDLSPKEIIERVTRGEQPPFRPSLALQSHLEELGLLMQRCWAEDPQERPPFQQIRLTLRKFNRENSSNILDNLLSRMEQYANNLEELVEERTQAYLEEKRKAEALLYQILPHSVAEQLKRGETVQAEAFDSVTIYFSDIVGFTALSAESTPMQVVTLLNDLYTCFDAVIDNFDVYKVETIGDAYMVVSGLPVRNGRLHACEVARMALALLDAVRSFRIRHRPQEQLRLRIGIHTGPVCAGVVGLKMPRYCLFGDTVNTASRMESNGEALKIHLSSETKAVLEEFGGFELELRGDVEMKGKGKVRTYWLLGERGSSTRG
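HEK293 cells stably expressing human Npr1 and cGMP GloSensor pGS-40F, loaded 2 h with 2% GloSensor reagent, given compound 30 min at room temperature. Luminescence read before and 20 min after 0.1 nM hNppA.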
An asterisk follows results filed as active; [ ] = remark or other dose. % is set by controls: 0 for no effect and ±100 for the full control effect; potency is the fitted concentration of half-maximal effect.

C[S+](=O)([O-])CCn1ncc2cc(OCc3cccc(-c4ccc(Cl)cc4)c3)ccc21 was read as NPR1 antag inconclusive.
Screening CCCS(=O)(=O)N1CCC(Oc2ccc(-c3noc(CC)n3)cc2)C1 (configuration not stated) returned NPR1 antag -2.6%.
COC(=O)C1=CN(CC(=O)Nc2ccccc2)S(=O)(=O)N=C1C was read as NPR1 antag 0.7%.
For CCC1=C(C(=O)OC)C(c2ccccc2)N2C(CC(=O)N3CCC(C)CC3)=CSC2=N1 (configuration not stated) the results were NPR1 antag -11.5%.
Screening COc1ccc(C(=O)NCC2Cn3cccc3C(=O)N2CC(C)C)cn1 (configuration not stated) returned NPR1 antag -4.4%.
For CCC(=O)N1CCc2sc(C(=O)N3CCN(c4cccc(Cl)c4)CC3)cc2C1 the results were NPR1 antag 10µM*.
Screening O=C(N[C@@H]1CCOC[C@H]1OCC1CCC1)c1ccc(-n2cnnc2)cc1 returned NPR1 antag 4.3%.
`CCOC(=O)CCNC(=O)c1ccc2c(c1)N(CC)C1CCCCCN1C2=O` (configuration not stated) gave NPR1 antag 0.0%.
Screening COCCN1C(=O)CCC2(C(=O)NCCCN3CCCC3)CCCC=C12 (configuration not stated) returned NPR1 antag -1.2%.
O=C(Nc1ccc2c(N3CCOCC3)ncnc2c1)c1ccc(F)c(Cl)c1 was read as NPR1 antag -1.4%.
For COCCN1CCCC2(CCN(C(=O)c3ncoc3C3CC3)C2)C1=O (configuration not stated) the results were NPR1 antag 1.0%.
Screening CN1CCN(Cc2nnc(C3CCN(Cc4cccnc4N)CC3)n2C)CC1 returned NPR1 antag 4.2%.
Screening COc1ccc(C(=O)N2CCC(c3noc(COc4ccc(F)cc4)n3)CC2)cn1 returned NPR1 antag inconclusive.
Screening COc1ccc(-c2nc(C(C)C)nc3c2CCN([S+](=O)([O-])c2cccs2)CC3)cc1 returned NPR1 antag 9.0%.
COc1cccc(C(=O)N2CCC(C(NC(=O)c3ccc(F)cc3)C(=O)NCC(C)C)CC2)c1 (configuration not stated) was read as NPR1 antag -0.1%.
CCS(=O)(=O)N1CC(F)(F)C[C@H]1c1nc(-c2cccnc2)no1 was read as NPR1 antag -2.1%.
Screening CN1CCC(Oc2ccc(C(N)=O)cn2)CC1 returned NPR1 antag 0.6%.
Screening Cc1noc(C)c1-c1cc2c(c(-c3cccc(O)c3)c1)C(=O)N(C)C2 returned NPR1 antag -1.7%[70.6 µM].
`Cc1noc(-c2ccn3c(CNC(=O)c4cc(Cl)ccc4F)nnc3c2)n1` gave NPR1 antag 2.0%.
Cc1nn2c(c1-c1ccccc1C(C)C)N(C(=O)c1cccc(N(C)C)c1)CCC2 was read as NPR1 antag -2.2%[70.6 µM].
`CC(CCc1ccccc1)NC(=O)Cn1cccc1-c1nc(-c2ccccc2)no1` (configuration not stated) gave NPR1 antag 4.5%.
O=C(NC[C@H]1OC[C@@H](NCc2ncc[nH]2)[C@@H]1O)c1cccs1 was read as NPR1 antag -10.9%[70.6 µM].
Screening Cc1ccsc1C(=O)NC1CCCN(c2cc(N(C)C)ncn2)C1 (configuration not stated) returned NPR1 antag -0.6%.
For COc1cc(CNc2nc(-c3c(C)noc3C)cc3cc(C)oc23)cc(OC)c1 the results were NPR1 antag inconclusive.
Screening O=C1NC2(CCN(Cc3ccc(OC(F)(F)F)cc3)C2)Oc2ccccc21 (configuration not stated) returned NPR1 antag 7.7%.
For CC(C)N1C(=O)C2(CCCC2)C1C(=O)Nc1ccc2c(c1)N(C)CCC2 (configuration not stated) the results were NPR1 antag -2.1%.
`COC1CCCN(c2cc(-c3ccc(Cl)cc3)nc3c(C)noc23)C1` (configuration not stated) gave NPR1 antag 1.4%[70.6 µM].
`COCC(=O)N1CC(C(=O)NC2CCCCC2)C2(CCOCC2)C1` (configuration not stated) gave NPR1 antag -5.3%.
Screening COc1ccc(C(=O)NCC(=O)N2CCCCCCNC(=O)CC2c2ccccc2)cc1 (configuration not stated) returned NPR1 antag -0.5%.
CCn1c2c(c(=O)n1Cc1ccccc1)CCN(C(=O)C1CCC(OC)CC1)C2 (configuration not stated) was read as NPR1 antag -0.6%[70.6 µM].
O=C1Nc2ccc(-c3ccc4c(c3)OCO4)cc2C(=O)N2CCN(C(=O)COc3ccccc3)C[C@H]12 was read as NPR1 antag -8.0%.
For Cc1ncn(CC(=O)N[C@H]2CCOC[C@H]2C2CCOCC2)c1C the results were NPR1 antag 9.4%.
Screening CC(=O)NC1(C)CCCN(Cc2cc(-c3cccc(N4CCOCC4)c3)cs2)C1 (configuration not stated) returned NPR1 antag inconclusive.
For O=C(NCc1ccccc1)c1cn(C2CN(C(=O)NCc3ccccc3)C2)nn1 the results were NPR1 antag -17.9%.
`Cc1ccc(C2=NC3(CCN(C(=O)c4ccn[nH]4)CC3)ON2)cc1` gave NPR1 antag -1.6%.
C[S+](=O)([O-])CCn1ncc2cc(OCc3cccc(-c4ccccc4O)c3)ccc21 was read as NPR1 antag 31.6µM*.
Screening CN1CCC(N2CCN(C(=O)c3cc(-c4ccc(F)cc4)cn3C)CC2)CC1 returned NPR1 antag -9.9%.
Screening O=C(N[C@H]1CCN2C(=O)c3cc(-c4ccsc4)ccc3NC(=O)[C@H]12)c1cnccn1 returned NPR1 antag 2.1%[70.6 µM].
Screening CN(Cc1ccccc1)Cc1cc(CC2(NCc3ccccc3F)COC2)no1 returned NPR1 antag -9.5%[70.6 µM].
`CC(C)CCN1CCC(N2CCN(S(C)(=O)=O)CC2)C1=O` (configuration not stated) gave NPR1 antag 0.3%.

Part of the list above in order of number of heavy atoms, ascending.
Screening Cc1ccsc1C(=O)NC1CCCN(c2cc(N(C)C)ncn2)C1 (configuration not stated) returned NPR1 antag -0.6%.
Screening O=C1NC2(CCN(Cc3ccc(OC(F)(F)F)cc3)C2)Oc2ccccc21 (configuration not stated) returned NPR1 antag 7.7%.
Screening CN(Cc1ccccc1)Cc1cc(CC2(NCc3ccccc3F)COC2)no1 returned NPR1 antag -9.5%[70.6 µM].

(cont.)
Cn1ccnc1CN1C(=O)CO[C@H](c2ccc(N)cc2)[C@H]1CO was read as NPR1 antag 14.4%[70.6 µM].
Screening Cc1cc(CNC(=O)Cn2nc(-c3ccccc3)n(-c3ccccc3)c2=O)on1 returned NPR1 antag 0.1%.
For O=C(CCC1CCCN(Cc2ccc3nonc3c2)C1)N1CCOCC1 (configuration not stated) the results were NPR1 antag -0.8%.
O=C(COc1ccc(NC(=O)C2CC2)cn1)NCCc1cccs1 was read as NPR1 antag 7.1%.
`CNC(=O)[C@@H]1CN(C(=O)CCCc2c[nH]c3ccccc23)C[C@H]1c1n[nH]c(C)n1` gave NPR1 antag -1.8%.
COc1ccc(-c2nnc([C@H]3CCN(CC4CCCCC4)C3)o2)cc1 was read as NPR1 antag -11.4%[70.6 µM].
`CNC(=O)N1CCC(C2CCN(C3CCN(C(C)=O)CC3)C2)CC1` (configuration not stated) gave NPR1 antag 10.4%.
`CCC(=O)N1CCc2c(C(=O)O)cccc21` gave NPR1 antag -4.7%.
Screening COCC(=O)NC1CCC12CCN(C(=O)NC1CCCCC1)CC2 (configuration not stated) returned NPR1 antag 4.5%.
Screening O=C(c1ccc(Cl)nc1)N1CCCC(c2nn(-c3ccc(Cl)cc3)c(=O)[nH]2)C1 (configuration not stated) returned NPR1 antag 5.6%.
Screening CC1(C)[C@H](Cc2cc(COc3ccccc3)on2)C[C@@H]1NC(=O)COc1ccccc1 returned NPR1 antag inconclusive.
`Cc1[nH]c(=O)[nH]c(=O)c1CC(=O)N1C[C@@H](C(=O)O)[C@H](c2ccccc2)C1` gave NPR1 antag 0.3%.
Screening O=C(CCc1cccnc1)N1CCCC(CCc2cccc(F)c2)C1 (configuration not stated) returned NPR1 antag -20.9%.
For COc1ccc(C(=O)N2CCC3(C2)NC(=O)c2ccccc2CO3)cc1 (configuration not stated) the results were NPR1 antag -2.2%.
`CC(C)(N)C(=O)N1CCCC(N2CCN(c3ccccc3F)CC2)C1` (configuration not stated) gave NPR1 antag 4.3%.
For COCc1cc(=O)n(CC(=O)Nc2cc(C)ccc2C)c(N2CCOCC2)n1 the results were NPR1 antag -4.0%.
For COCC(=O)N(C1CCOCC1)C1CCN(S(=O)(=O)c2ccccc2)CC1 the results were NPR1 antag 0.6%.
Cc1cn2nnc(C(=O)NCc3ccco3)c2c(=O)[nH]1 was read as NPR1 antag 25.8%.
`O=C1NCCCN1C1CCN(Cc2ccc(C(F)(F)F)cc2)CC1` gave NPR1 antag -17.0%[70.6 µM].
COc1cccc(C(=O)N2CCC(n3cc(-c4nc(-c5ccccc5)no4)nn3)CC2)c1 was read as NPR1 antag inconclusive.
Cc1ncsc1CN1CC[C@H]2C(=O)NCCCCCCN(Cc3ccncc3)[C@@H]2C1 was read as NPR1 antag -1.0%.
`CCCCCC(=O)N1CC[C@@H](CC(=O)O)[C@@H](CC2=NCCc3cc(OC)ccc32)C1` gave NPR1 antag -0.6%[70.6 µM].
Cc1ccsc1-c1nc(CN2CCC(CCn3cccn3)CC2)c(C)o1 was read as NPR1 antag -2.5%.
CCOCc1nc(C2CCCN(C(=O)CCc3ccccc3)C2)no1 (configuration not stated) was read as NPR1 antag -1.8%.
`O=C(CCc1cccnc1)N1CC(CNc2ccccc2)C2(C1)CN(c1ccccc1)C2` (configuration not stated) gave NPR1 antag -13.8%[70.6 µM].
Screening O=C(Nc1ccc(Cl)cc1)c1nc2c(o1)CCN(Cc1cccc(F)c1F)CC2 returned NPR1 antag 3.55µM*.
For COCCN1C(=O)c2cccn2CC1CNC(=O)CCCc1ccccc1 (configuration not stated) the results were NPR1 antag 3.6%.
For CCOC(=O)C1CCCN(C(=O)CC(c2cccc([N+](=O)[O-])c2)c2c[nH]c3c(CC)cccc23)C1 (configuration not stated) the results were NPR1 antag -14.9%.
`O=C(c1ccc(C(F)(F)F)cc1)N1CCCC2(CNc3ccccc3[S+](=O)([O-])N2)C1` (configuration not stated) gave NPR1 antag 1.5%.
Screening Cc1nc(C2CC(O)C2)cc(N2CCC(c3nncn3C)CC2)n1 (configuration not stated) returned NPR1 antag 4.4%.
Screening O=C(CC1CCCN(c2cn[nH]c(=O)c2)C1)Nc1ccccc1F (configuration not stated) returned NPR1 antag -1.6%.
`COc1cc(=O)n2c(c1C(=O)Nc1ccc(Cl)c(F)c1)CCCC2` gave NPR1 antag 3.6%.
For O=C(NCCc1cccs1)c1noc(-c2ccc(F)cc2)n1 the results were NPR1 antag -0.7%.
For CS(=O)(=O)N1CCc2nc(-c3ccc(Cl)cc3)[nH]c2C1 the results were NPR1 antag -2.2%.
O=C(NC1C[C@H]2CC[C@@H](C1)N2C(=O)C1CCOCC1)c1ccncc1 (some centres not stated) was read as NPR1 antag 3.2%.
CC(C)CCN1CCC(N2CCN(C(=O)C3CCC3)CC2)C1=O (configuration not stated) was read as NPR1 antag 4.0%.
`CC(C)N[C@H]1CC(C)(C)[C@@H]2C[C@@](C)(O)CC[C@]12CCC(=O)NCCc1c[nH]c2ccccc12` gave NPR1 antag -0.2%.
For O=c1n(-c2ccncc2)nc2n1CCN(Cc1ccc(F)cc1)C2 the results were NPR1 antag inconclusive.
Screening CN1[C@@H](CCC(=O)NCc2ccccc2)CNC(=O)[C@@H]2[C@H]1CCN2Cc1ncc[nH]1 returned NPR1 antag -0.9%[70.6 µM].
Screening C[C@H]1[C@@H]2[C@H]3OC(=O)[C@@H](C)[C@@H]3CC[C@@]2(C)CC[C@@H]1NC(=O)C1CCCCC1 returned NPR1 antag -19.6%[70.6 µM].

Looked up one by one from the entries so far (6):
For CCOC(=O)C1CCCN(C(=O)CC(c2cccc([N+](=O)[O-])c2)c2c[nH]c3c(CC)cccc23)C1 (configuration not stated) the results were NPR1 antag -14.9%.
`O=C(CCc1cccnc1)N1CC(CNc2ccccc2)C2(C1)CN(c1ccccc1)C2` (configuration not stated) gave NPR1 antag -13.8%[70.6 µM].
`O=C(c1ccc(C(F)(F)F)cc1)N1CCCC2(CNc3ccccc3[S+](=O)([O-])N2)C1` (configuration not stated) gave NPR1 antag 1.5%.
`COc1cc(=O)n2c(c1C(=O)Nc1ccc(Cl)c(F)c1)CCCC2` gave NPR1 antag 3.6%.
For O=C(NCCc1cccs1)c1noc(-c2ccc(F)cc2)n1 the results were NPR1 antag -0.7%.
CCOCc1nc(C2CCCN(C(=O)CCc3ccccc3)C2)no1 (configuration not stated) was read as NPR1 antag -1.8%.

Remaining list, next part:
`COc1ccc(NC(=O)c2ccc3c(c2)OCCN(CCC(F)(F)F)C3)cc1F` gave NPR1 antag -11.2%[70.6 µM].
`Cc1ccsc1CN1CCc2[nH]nc(C(=O)N(C)C)c2C1` gave NPR1 antag -8.4%.
`CCC1(C(=O)NCc2ccc(Cl)cc2)CCCCC(=O)N1` (configuration not stated) gave NPR1 antag 2.6%.
COCC(=O)Nc1ccc(-c2noc([C@@H]3CCCN3CC(C)C)n2)cn1 was read as NPR1 antag 2.8%[70.6 µM].
For COc1cc(OC)c(NC(=O)Cn2nc3n(c2=O)CCCCC3)cc1Cl the results were NPR1 antag 1.6%.
Cc1cccc(OCC2(CNCC(C)C)C[C@@H](O)[C@@H](O)C2)n1 (some centres not stated) was read as NPR1 antag 2.0%[70.6 µM].
For CN(C)c1nc2c(c(=O)[nH]1)CCN(C(=O)CCCS(N)(=O)=O)C2 the results were NPR1 antag 6.1%.
Cc1nc(N)ncc1C(=O)N1CC[C@@H]2[C@@H](CCC(=O)N2CCCO)C1 was read as NPR1 antag 2.7%.
For Cc1ccc(C)c(NC(=O)Cn2c(C)cc3nc4n(c(=O)c32)CCCCC4)c1 the results were NPR1 antag -6.7%.
Screening COc1ccc(C(=O)Nc2cnc(-c3ccc(Cl)cc3)nc2)cc1 returned NPR1 antag -26.6%.
For CCCC(=O)N1CCC2(CC1)C(=O)N(C)c1ccccc12 the results were NPR1 antag -1.5%.
For COc1cc(NC(=O)Cn2c(N(C)Cc3ccccc3)nc(C)cc2=O)cc(OC)c1 the results were NPR1 antag 7.94µM*.

This is a subset; rates above refer to the full screens.
